HCMV NEC inh – disrupts HCMV UL50-UL53 complex binding; HTRF UL50-UL53 interaction, normalized percent inhibition; inhibition, % (test concentration not listed); 190,000 tested, 0.15% active;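 active means both replicates at 50% or more, plus weaker picks with an unusually low signal ratio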;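 further: stock transfer was 100 nL into about 20 µL; 0% = negative control wells and 100% = wells with untagged competitor protein; inactives centre near -12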
GIV-Gai inh – blocks GIV peptide binding to rat Galpha-i3; Galpha-i3/FITC-GIV peptide fluorescence polarization, 90 min; active compounds read low; scaled: aluminum fluoride 0%, vehicle 100%; percent of control (FP), % (test concentration not listed); 210,000 tested, 0.42% active;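 active means replicate mean at 85% of control or lower, very high polarization wells dropped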;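 further: lower values mean more displacement of the GIV peptide from Galpha-i3; wells of about 15 µL received 100 nL stock; the first replicate is given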
Target sequence (P08753 whole entry, looked up): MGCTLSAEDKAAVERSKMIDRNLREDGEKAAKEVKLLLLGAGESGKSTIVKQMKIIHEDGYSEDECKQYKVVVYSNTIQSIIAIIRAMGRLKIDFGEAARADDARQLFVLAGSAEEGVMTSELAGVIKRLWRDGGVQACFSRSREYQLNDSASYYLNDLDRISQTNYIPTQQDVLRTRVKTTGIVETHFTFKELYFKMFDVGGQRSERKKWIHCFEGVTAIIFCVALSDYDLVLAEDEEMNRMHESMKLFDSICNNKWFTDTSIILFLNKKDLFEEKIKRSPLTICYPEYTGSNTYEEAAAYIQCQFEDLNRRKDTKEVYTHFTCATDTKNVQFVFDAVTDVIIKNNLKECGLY
Sa growth inh – S. aureus growth inhibition. S. aureus RN4220 growth, OD600, 20 h, 42 °C; active compounds read low. relative growth, % (concentration not given with the values). 170,000 tested, 0.53% active;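 active means growth at 42 °C up to 50% and 20 or more points under that at 30 °C, or under 10% at both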;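 further: 300 nL library stock went into each well; scaled to the means of positive and negative controls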
Sa growth inh second temp – also measured in Sa growth inh; calls as there; relative growth, %; measured here: growth at 30 °C;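 optical density after 20 h as mean of two plates; 100% = untreated growth and lower means inhibition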
The depositor's hits bear a star; · = no result given; & = joins results of further samples.

# | canonical_smiles | HCMV NEC inh | GIV-Gai inh
1 | CCC(Oc1ccccc1)C(=O)Nc1nccs1 (stereo not drawn) | -4 | 104
2 | O=c1[nH]c2ccc(S(=O)(=O)N(CCc3ccccc3)Cc3ccccc3)cc2[nH]c1=O | -1 | 107
3 | CCc1ccc(NC(=O)CCn2c(C(F)(F)F)nc3cc(S(=O)(=O)N(CC)CC)ccc32)cc1 | -30 | 107
4 | O=C(N1CC(Oc2ccc(Cl)cc2)C1)N1CC(Oc2ccc(Cl)cc2)C1 | 1 | 94
5 | COc1ccc(NC(=O)CN2C(=O)C3(SCC(=O)N3c3ccccc3)c3ccccc32)cc1Cl (stereo not drawn) | · | 103
6 | O=C(COC(=O)c1ccc2ccccc2n1)Nc1ccccc1-c1ccccc1 | -5 | ·
7 | COc1ccc(-n2c3c(cc(-c4nc(-c5ccc(Cl)cc5)cs4)c2=O)C(=O)CC(C)(C)C3)cc1 | 26 | 102
8 | CCc1nn(CC(=O)N2CCC(Cc3ccccc3)CC2)c(=O)c2cc3occc3n12 | -18 | 96
9 | CC(NC(=O)c1cccs1)C(=O)N1CCCCC1 (stereo not drawn) | -16 | 105
10 | CCOC(=O)c1c(-c2ccccc2)oc2ccc(OCC(O)CN3CCOCC3)cc12 (stereo not drawn) | -22 | ·
11 | CCn1c(=O)c2c(nc3n2CCS3)n(C)c1=O | -23 | 104
12 | CC(Sc1nncn1C)c1nnc(-c2cccs2)o1 (stereo not drawn) | -12 | ·

# | Sa growth inh | Sa growth inh second temp
1 | 109 | 80
2 | 102 | 100
3 | · | ·
4 | 97 | 82
5 | 119 | 102
6 | 109 | 104
7 | 93 | 98
8 | · | ·
9 | 95 | 90
10 | 59 | 37
11 | 89 | 87
12 | 90 | 93

(cont.)
# | canonical_smiles | HCMV NEC inh | GIV-Gai inh
13 | CC(C)NC(=O)c1ccccc1C(=O)NC(C)C | 9 | ·
14 | CCCC1(CCC)NC(=O)N(Cc2cc(=O)oc3c(C)c(C)ccc23)C1=O | -13 | ·
15 | COc1ccccc1N1CCN(Cc2nc(-c3cc(OC)c(OC)c(OC)c3)no2)CC1 | 11 | 98
16 | CN(C)/C=N/c1sc2c(c1C#N)CCC2 | -21 | ·
17 | COC(=O)C1=C(C)OC(N)=C(C#N)C1c1ccc2c(c1)OCO2 (stereo not drawn) | -21 | 104
18 | COc1ccc(Cl)c2sc(NC(=O)c3ccc(S(=O)(=O)N4CCCC4)cc3)nc12 | · | 96
19 | Cn1nc(C(=O)Nc2ccccc2)c2c1-c1ccccc1SC2 | -24 | 101
20 | CCOc1ccc(C(=O)Nc2ccc(S(=O)(=O)N3CCOCC3)cc2)cc1OCC | -8 | 103
21 | CCOC(=O)COc1ccc(C2NC(C(=O)O)CS2)cc1OC (stereo not drawn) | -7 | 104
22 | CC1(C)Cc2ccccc2C(C)(C(=O)NN)N1 (stereo not drawn) | -9 | 106
23 | Cc1cc(=O)oc2cc(OCC(=O)OCC(=O)c3ccc4c(c3)NC(=O)CO4)ccc12 | -20 | ·
24 | C=CCOC(=O)C1=C(C)Nc2nc(SCC(C)C)[nH]c(=O)c2C1c1sccc1C (stereo not drawn) | -13 | 97

# | Sa growth inh | Sa growth inh second temp
13 | 114 | 99
14 | 66 | 88
15 | 99 | 109
16 | 102 | 92
17 | · | ·
18 | 83 | 86
19 | · | ·
20 | 113 | 103
21 | 90 | 89
22 | 74 | 53
23 | 98 | 92
24 | · | ·

(listing goes on)
# | canonical_smiles | HCMV NEC inh | GIV-Gai inh
25 | CC(C)=CCN1CCNC(=O)C1CC(=O)O (stereo not drawn) | 10 | 99
26 | CCOC(=O)c1cc(C)n(Cc2ccc(OCC)c(OC)c2)c1C | -32 | 104
27 | O=C(NCc1ccc2c(c1)OCO2)c1cccc2ccccc12 | -4 | ·
28 | Cc1ccc(N2CC(C(=O)NCCS(=O)(=O)N3CCN(c4ccccc4F)CC3)CC2=O)cc1 (stereo not drawn) | · | 105
29 | Cc1sc2nc(CSCC(=O)c3cc(C)n(CCC(C)C)c3C)[nH]c(=O)c2c1C | -22 | ·
30 | C/C=C(\C)C(=O)Nc1cc(C)ccc1-n1cccc1 | · | 105
31 | CCOC(=O)c1c(C)nn(-c2ncccc2NC(=S)NCc2ccco2)c1C | -32 | 101
32 | COc1ccccc1NC(=O)CSC1=Nc2ccccc2C2=NC(CC(=O)NCc3cccs3)C(=O)N12 (stereo not drawn) | · | 103
33 | CCOc1ccc(-n2c(=O)[nH]cc(C(=O)Nc3cccc(Cl)c3)c2=O)cc1 | -6 | 107
34 | Cc1[nH]c(=O)[nH]c(=O)c1S(=O)(=O)N1CCN(c2cccc(Cl)c2)CC1 | · | 101
35 | CCCNC(=O)Nc1ccc(S(=O)(=O)Nc2ccc(OCC)cc2)cc1 | -30 | ·
36 | Cc1ccc(S(=O)(=O)C(F)(F)F)cc1 | -4 | ·

# | Sa growth inh | Sa growth inh second temp
25 | · | ·
26 | 75 | 68
27 | 116 | 101
28 | 98 | 91
29 | 101 | 98
30 | 104 | 98
31 | 98 | 82
32 | 75 | 63
33 | · | ·
34 | 97 | 89
35 | 74 | 94
36 | 107 | 87

Sorted by the number under GIV-Gai inh (lowest first): some entries from above.
entry | structure | GIV-Gai inh
31 | CCOC(=O)c1c(C)nn(-c2ncccc2NC(=S)NCc2ccco2)c1C | 101
32 | COc1ccccc1NC(=O)CSC1=Nc2ccccc2C2=NC(CC(=O)NCc3cccs3)C(=O)N12 (stereo not drawn) | 103
26 | CCOC(=O)c1cc(C)n(Cc2ccc(OCC)c(OC)c2)c1C | 104
28 | Cc1ccc(N2CC(C(=O)NCCS(=O)(=O)N3CCN(c4ccccc4F)CC3)CC2=O)cc1 (stereo not drawn) | 105
33 | CCOc1ccc(-n2c(=O)[nH]cc(C(=O)Nc3cccc(Cl)c3)c2=O)cc1 | 107

Carrying on.
# | canonical_smiles | HCMV NEC inh | GIV-Gai inh
37 | OC(COc1ccc(Br)cc1)Cn1ccnc1 (stereo not drawn) | · | 104
38 | CC(=O)N=C(N)/N=c1\nc(C)c2ccc(C)cc2n1C(C)=O | -22 | ·
39 | Cc1ccc(-n2ccn3cc(-c4ccc5c(c4)OCO5)nc3c2=O)cc1C | -16 | 102
40 | CCN(CC)c1ccc(-c2nc(-c3ccccc3C)no2)cc1[N+](=O)[O-] | -12 | 101
41 | Cc1nc2sc3c(c2c(=O)o1)CCCC3 | -24 | 98
42 | COc1cc(NS(=O)(=O)c2ccc(N)cc2)nc(OC)n1 | -30&-28&-12&0 | 110
43 | Cc1c(C(=O)N2CCN(c3cccc(Cl)c3)CC2)sc2nc(-c3ccccc3)cn12 | -35 | 104
44 | Cc1ccc(SCCNS(C)(=O)=O)cc1 | -8 | 113
45 | N#CC1CCN(Cc2ccccc2)CC1 | 0 | ·
46 | Cn1cnc(S(=O)(=O)N2CCc3ccccc32)c1 | -9 | 102
47 | CCn1nccc1C1CCCN1C(=O)c1ccn(C)n1 (stereo not drawn) | -26 | 103
48 | CC1CCCCN1C(=O)CN(c1nccs1)S(=O)(=O)c1ccccc1 (stereo not drawn) | 18 | ·

# | Sa growth inh | Sa growth inh second temp
37 | 108 | 64
38 | 113 | 88
39 | · | ·
40 | 97 | 85
41 | · | ·
42 | 68&64 | 33&37
43 | · | ·
44 | 79 | 99
45 | 108 | 93
46 | 94 | 88
47 | · | ·
48 | 113 | 101

By substructure, the entries above containing a COOH group
# | canonical_smiles | HCMV NEC inh | GIV-Gai inh
21 | CCOC(=O)COc1ccc(C2NC(C(=O)O)CS2)cc1OC (stereo not drawn) | -7 | 104
25 | CC(C)=CCN1CCNC(=O)C1CC(=O)O (stereo not drawn) | 10 | 99

# | Sa growth inh | Sa growth inh second temp
21 | 90 | 89
25 | · | ·

Other records follow.
# | canonical_smiles | HCMV NEC inh | GIV-Gai inh
49 | CN(Cc1ccco1)C(=O)c1cc2c(s1)-c1ccc(Cl)cc1S(=O)(=O)C2 | -22 | 109
50 | C=CCNC(=O)c1ccccc1NS(=O)(=O)c1ccc(Br)cc1 | -5 | ·
51 | O=C(c1ccco1)N(CC1CCCO1)c1nc(-c2ccccc2)cs1 (stereo not drawn) | 20 | 104
52 | COC(=O)c1sccc1S(=O)(=O)N(CC(=O)NCc1ccc(F)cc1)c1ccccc1 | · | 102
53 | CC1=NN(C(C)(C)C#N)C(c2ccccc2)C1 (stereo not drawn) | -26 | 108
54 | CC1(C)O[C@H]2O[C@H](C(O)COC(=O)c3ccccc3)[C@H](OC(=O)c3ccccc3)[C@H]2O1 (stereo partly drawn) | -16 | 107
55 | CC(=Nc1cccc(O)c1)c1sc2ccccc2c1O | -66 | 175
56 | O=C1OCc2ccc(NS(=O)(=O)c3ccc(C(F)(F)F)cc3)cc21 | -6 | 103
57 | CCCn1c(=O)[nH]c2cc(-c3noc(-c4cnccn4)n3)ccc21 | -59 | 100
58 | CC(C)CC(=O)NC(=S)Nc1ccc2oc(-c3ccccc3)nc2c1 | 9 | 99
59 | O=C(O)CC1(CC(=O)Nc2cccc(C(F)(F)F)c2)CCCC1 | · | 101
60 | COCCCN(CCC(=O)N1CCNCC1)C(=O)c1ccc(C)cc1 | -16 | 101

# | Sa growth inh | Sa growth inh second temp
49 | 91 | 80
50 | 95 | 48
51 | 90 | 83
52 | 90 | 88
53 | 59 | 97
54 | 98 | 84
55 | · | ·
56 | 95 | 86
57 | · | ·
58 | 111 | 102
59 | 144 | 84
60 | · | ·

Record cards (already shown).
`CC1=NN(C(C)(C)C#N)C(c2ccccc2)C1` (stereo not drawn) as listed: HCMV NEC inh: -26; GIV-Gai inh: 108; Sa growth inh: 59; Sa growth inh second temp: 97
`CN(Cc1ccco1)C(=O)c1cc2c(s1)-c1ccc(Cl)cc1S(=O)(=O)C2` as listed: HCMV NEC inh: -22; GIV-Gai inh: 109; Sa growth inh: 91; Sa growth inh second temp: 80
`COC(=O)c1sccc1S(=O)(=O)N(CC(=O)NCc1ccc(F)cc1)c1ccccc1` as listed: HCMV NEC inh: ·; GIV-Gai inh: 102; Sa growth inh: 90; Sa growth inh second temp: 88

(continued)
# | canonical_smiles | HCMV NEC inh | GIV-Gai inh
61 | c1csc(CNC2C3CC4CC(C3)CC2C4)c1 (stereo not drawn) | · | 101
62 | COC(=O)c1sccc1NC(=O)c1cc(-c2ccc(OC)cc2OC)nc2ccccc12 | -13 | 102
63 | O=C(CSc1oc(-c2ccccc2)nc1S(=O)(=O)c1ccc(Cl)cc1)Nc1ccc(F)cc1 | -14 | 109
64 | CCN(CC)c1nc2ccccc2c(N)c1-c1ccccc1 | · | 105
65 | C=CCn1c(NC(=O)CC)c(C(=O)OCC)sc1=S | -41 | ·
66 | COc1cc2c(cc1OC)C(c1c(-c3ccccc3)noc1C)=NCC2 | -18 | 108
67 | CC(=O)Oc1ccc(NNc2ccccc2)cc1 | -28 | 106
68 | CCOc1cc(-c2ccc(OC(=O)c3ccccc3)c(OC)c2)cc(=O)c2c(C)oc(C)c12 | -35 | 114
69 | COc1ccc(-n2cnc(=O)c(C#N)c2SC)cc1 | -18 | 103
70 | CC(C)CN1CCOC(CNCc2ccc(-c3nc4ccccc4s3)o2)C1 (stereo not drawn) | -39 | ·
71 | COc1ccc(NC(=O)C(c2ccccc2)N(C)C(=O)c2ccc(=O)[nH]c2)cc1 (stereo not drawn) | 1 | 98
72 | Oc1c(C(Nc2ccccc2Cl)c2ccccn2)ccc2cccnc12 (stereo not drawn) | -28 | 102

# | Sa growth inh | Sa growth inh second temp
61 | 99 | 79
62 | · | ·
63 | 104 | 107
64 | 88 | 71
65 | 87 | 93
66 | 78 | 89
67 | 118 | 70
68 | 103 | 75
69 | 88 | 85
70 | 100 | 85
71 | 80 | 85
72 | · | ·

Next results follow.
# | canonical_smiles | HCMV NEC inh | GIV-Gai inh
73 | COC(=O)CNC(c1ccccc1)c1cc(Br)ccc1NC(=O)CN1CCOCC1 (stereo not drawn) | -17 | ·
74 | COc1ccc(NC(=O)CCc2nc3c(C)nn(-c4ccc(C)cc4)c3n(C)c2=O)cc1 | -37 | 106&102
75 | Cc1c(C(=O)NCCN2CCOCC2)sc2nc3n(c(=O)c12)CCCC3 | -22 | 103
76 | CCOC(=O)c1nc(Nc2ccccc2OC)c2ccccc2n1 | -27 | 102
77 | Cc1cc(C)c2c(n1)SCCN2C(=O)Nc1ccc(C(=O)NCC2CCCO2)cc1 (stereo not drawn) | 2 | 102
78 | COc1cccc(Sc2nc3ccccc3n3c(=O)n(CC(=O)NCC4CCCO4)nc23)c1 (stereo not drawn) | 7 | 106
79 | CC(CNC(=O)c1cc(-c2ccccc2)n[nH]1)c1ccccc1 (stereo not drawn) | · | 101
80 | Cc1cc2oc(C(=O)Nc3ccc(S(N)(=O)=O)cc3)cc(=O)c2cc1C | -21 | 108
81 | COc1ccc(NC(=O)C2CCN(S(=O)(=O)c3ccc4c(c3)CCCC(=O)N4)CC2)cc1OC | 0 | 113&103
82 | CC1(C)OC2[C@H](n3cnc4c(N)ncnc43)O[C@H](CO)[C@H]2O1 (stereo partly drawn) | -26 | 97

# | Sa growth inh | Sa growth inh second temp
73 | 95 | 90
74 | 92 | 93
75 | 86 | 86
76 | 102 | 88
77 | · | ·
78 | · | ·
79 | 103 | 94
80 | 109 | 84
81 | 109 | 92
82 | 104 | 90

Compound activity deposited in PubChem BioAssay by ICCB-Longwood Screening Facility, Harvard Medical School.
